# AID504770 = E. coli YBA685 growth inhibition, screen for V. cholerae RctB inhibitors. E. coli YBA685 rctB-dependent plasmid, OD600 growth, 3 h; active compounds read low. z-score (concentration not given with the values). 130,000 tested, 0.27% active;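 active = z-score under -2 on both plates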;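 note: wells of about 30 µL received 100 nL stock; score is relative to mean and SD of the test wells; the first replicate is given; strong numbers were not always called active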
# CapD inh = blocks the Bacillus anthracis CapD enzyme; purified CapD enzyme, fluorescence intensity read-out; active compounds read low; some hits fall short of the stated cut; z-score (no concentration beside the values); 140,000 tested, 0.23% active;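 active = z-score under -4 in either of two replicates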;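 note: stock transfer was 100 nL into about 40 µL; score is relative to mean and spread of the plate; one replicate is shown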
# Numbers without * were called inactive; . = no result given. Rows are unselected; 0.37% or so of the library scored in one or more.
SMILES,AID504770,CapD inh
Cn1nc(C(F)(F)F)c(-c2ccccc2)c1N1C(=O)C2C3C=CC(C3)C2C1=O (centres undefined),1.9,-0.99
CCCC(=O)Nc1ccc2c(C)cc(C)nc2n1,0.15,.
CN(CCc1ccccn1)C(=O)c1cccc(Oc2ccccc2)c1,-1.4,.
COc1ccc(O)c(C(=O)c2cc(C#N)c(=O)n(-c3c(C)n(C)n(-c4ccccc4)c3=O)c2)c1,-0.8,.
O=C(O)CS(=O)(=O)c1nc2ccccc2s1,0.7,.
O=C(c1ccc(N2CCCC2=O)cc1)N1CCc2ccccc2C1,-0.2,.
CC(C)(C)NC(=O)CN1CCN(Cc2c(O)c(C(=O)N3CCOCC3)cc3ccccc23)CC1,0.55,.
CC(Oc1ccc(C#N)cc1)C(=O)O (centres undefined),0.3,.
Cc1ccc(/C=N/NC=O)o1,-0.55,.
O=C(c1ccc(/C=C2\Sc3ccccc3N(Cc3ccccc3F)C2=O)cc1)N1CCN(C(=O)c2ccco2)CC1,0.35,-0.22
COC(=O)[C@@]1(C)CCCC2(C)c3ccc(C(C)C)cc3CCC21 (some centres undefined),0.2,-2.3
O=C(CSc1nnc(-c2cccs2)n1-c1ccccc1)OC1CCS(=O)(=O)C1 (centres undefined),0.1,.
CN(Cc1ccccc1)c1ncnc2c1cnn2-c1ccccc1,0,0.29
CCSc1ncc(S(=O)(=O)c2ccccc2)c(N)n1,0.3,-3
O=C(Nc1nc2ccccc2[nH]1)C1CC(=O)N(CCc2ccccc2)C1 (centres undefined),-0.6,.
COc1ccc(CNC(=O)c2cc(C(C)C)on2)cc1,0.7,-0.4
CCOC(=O)c1c(C)c2c(=O)[nH]cnc2n1-c1ccccc1,0.6,0.66
COc1ccc(C2=NN(C(C)=O)C(c3ccc(OC)c(OC)c3)C2)cc1OC (centres undefined),.,3.2
Cc1cc(C)c2c(n1)SCC(=O)N2CC(=O)Nc1cccc(Cl)c1,0.1,0.03
FC(F)(F)c1ccc(Cl)nc1,-0.05,0.82
COc1ccc(/C=C/C(=O)NC(N)=S)cc1,-2,.
CCC(=O)Nc1nc2ccc(OC)cc2s1,-1.1,-0.08
O=c1[nH]c2ccccc2nc1-c1cc(-c2ccccc2)c(-c2ccccc2)s1,.,-0.34
CCc1ccc(CNC(=O)CCC(=O)N2CCCn3nc(C)cc32)cc1,0.15,0.41
O=S(=O)(NCCNc1nccc(C(F)(F)F)n1)c1ccccc1,0.2,5.5
Cc1ccccc1NC(=O)C(C)Sc1nc2ccccc2c(=O)n1C (centres undefined),-0.2,.
O=C(NCc1ccco1)c1cccc(S(=O)(=O)Nc2ccc(Br)cc2)c1,-1.1,.
CCOC(=O)c1cc(-c2ccccc2)n(CCCC(=O)N2CCCCC2)c1C,-0.3,-0.29
O=C(COC(=O)C(CCCCN1C(=O)C2C3C=CC(C3)C2C1=O)N1C(=O)C2C3C=CC(C3)C2C1=O)c1ccc(Br)cc1 (centres undefined),.,-0.39
COc1cccc2c(=O)c(NC(=O)NCCCN3CCN(C)CC3)c[nH]c12,-0.65,95
CCOC(=O)C1CCN(C(=O)c2ccc3snnc3c2)CC1,-0.45,-0.46
CCCN(S(=O)(=O)c1ccc(C)cc1)S(=O)(=O)c1ccc(Cl)cc1,-0.35,.
Nc1nonc1C(=O)NCCN=Cc1ccccc1O,-0.75,0.14
c1cncc(-c2nnc3n2C2(CCCCC2)Cc2ccccc2-3)c1,-0.45,5.3
CCOC(=O)c1cccc(-n2c(C)cc(C=C3C(=O)N(C)C(=S)N(C)C3=O)c2C)c1,.,-0.15
CCOc1ccc2nc3c(c(C(=O)O)c2c1)CCCC3,-0.6,12
CSc1nc(N)c(C(=O)Nc2ccc(N(C)C)cc2)s1,-0.35,-0.99
COc1ccc(C#N)c(S(=O)Cc2ccccc2)c1 (centres undefined),-0.5,0.07
CC(C)(C)C1CCC(OCC(O)CN2CCCCCC2)CC1 (centres undefined),-0.25,-0.2
COc1ccc(CCNC(=S)N2CCCCC2C(N)=O)cc1 (centres undefined),-0.35,.
CN(C(=S)Nc1ccccc1)C1CCC(C2OCCO2)CC1O (centres undefined),1.4,8.8
O=C(c1ccco1)N1CCC(N(C2CC2)S(=O)(=O)c2ccc(Cl)cc2)CC1,.,-0.57
Cc1cccc(-c2noc(NC(=O)NNc3c(Cl)cccc3Cl)n2)c1,1.5,-0.53
NNC(=O)c1cc(OCC(F)(F)F)nc(OCC(F)(F)F)c1,-0.9,0.01
COc1cc(Br)c(CN2CCCC(COC(=O)N3CCN(C(=O)OCc4ccccc4)CC3)C2)cc1OC (centres undefined),.,-0.98
O=C(O)C(Cc1ccccc1)N1C(=O)CSC1=S (centres undefined),0.6,-0.46
O=C(CSC1=NS(=O)(=O)c2cc(Cl)ccc2N1)NCc1ccc2c(c1)OCO2,0.35,.
Cc1ccc(C)c(N2CCN(C(=O)CCN3C(=O)COc4ccccc43)CC2)c1,-0.3,0
N/C(=C\C(=O)C(F)(F)F)c1ccc(Cl)cc1,1.4,-2.5
O=C1CN(c2ccc(Cl)cc2)C(=O)CN1/N=C/c1ccco1,-0.5,-0.82
OCCc1c[nH]c2ccccc12,.,0.58
O=C(NC1CCc2ccccc21)c1ccc2c(c1)[nH]c(=O)n2C1CCCCC1 (centres undefined),0.15,.
O=C(c1ccc(-n2cnnn2)cc1)N(C1CCCCC1)C1CCCCC1,-0.65,.
CS(=O)(=O)Nc1ccccc1C(=O)N1CCOCC1,-0.4,0.48
NC(=O)c1ccccc1NS(=O)(=O)Cc1ccccc1,0.65,12
CCCc1nc2ccccc2c(C(=O)O)c1CC,0.15,0.005
CCNC(=O)NNc1c(Cl)cccc1Cl,0.25,0.24
CNC(=O)/C(=C\c1ccc2c(c1)OCO2)NC(=O)c1ccco1,-0.15,1
CCOC(=O)C1CCN(CN2C(=O)CCC2=O)CC1,-0.15,.
COc1ccc(C(=O)Nc2sc(C)c(C)c2CN2CCN(CCO)CC2)cc1,0.1,.

# The results go on:
SMILES,AID504770,CapD inh
OCc1c(F)c(F)c(F)c(F)c1F,2.3,-0.2
CN(C1CCCCC1)S(=O)(=O)c1cc2c(cc1Cl)NC(=O)CO2,-0.8,-0.55
C=CCc1ccc(Oc2ncnc3sc(C)c(C)c23)c(OC)c1,-1.4,-0.35
CC1CCN(S(=O)(=O)c2ccc(S(=O)(=O)N3CCCN(Cc4ccccc4)C3)cc2)CC1,1.4,.
CSc1ncccc1C(=O)OCC(=O)NCc1ccccc1,-0.45,.
CN(C)Cc1c(O)ccc2c(=O)c(-c3ccc(F)cc3)c(C(F)(F)F)oc12,1.2,.
Cc1ccc(N(C)S(=O)(=O)c2cc(Br)cnc2N)cc1,-0.3,0.4
O=C(Nc1cc(Cl)ccc1O)c1nc2ncccn2n1,-0.85,.
CCCCn1c(CCCNC(C)=O)nc2ccccc21,-0.15,0.21
N#Cc1cccc(NC(=O)c2sc3nc4c(cc3c2N)C2CCN4CC2)c1,2,8.4
COc1cc(OC)c(/C=C2\C(=O)NC(=S)N(c3ccc(Cl)cc3)C2=O)cc1Br,.,3.6
Cc1cc(-c2ccc(S(=O)(=O)N3CCc4ccccc43)s2)on1,-0.05,-0.045

# As a working copy, part of the list above.
SMILES,AID504770,CapD inh
CCNC(=O)NNc1c(Cl)cccc1Cl,0.25,0.24
CNC(=O)/C(=C\c1ccc2c(c1)OCO2)NC(=O)c1ccco1,-0.15,1
CCOC(=O)C1CCN(CN2C(=O)CCC2=O)CC1,-0.15,.
COc1ccc(C(=O)Nc2sc(C)c(C)c2CN2CCN(CCO)CC2)cc1,0.1,.
OCc1c(F)c(F)c(F)c(F)c1F,2.3,-0.2
CN(C1CCCCC1)S(=O)(=O)c1cc2c(cc1Cl)NC(=O)CO2,-0.8,-0.55
C=CCc1ccc(Oc2ncnc3sc(C)c(C)c23)c(OC)c1,-1.4,-0.35
CC1CCN(S(=O)(=O)c2ccc(S(=O)(=O)N3CCCN(Cc4ccccc4)C3)cc2)CC1,1.4,.
CSc1ncccc1C(=O)OCC(=O)NCc1ccccc1,-0.45,.
CN(C)Cc1c(O)ccc2c(=O)c(-c3ccc(F)cc3)c(C(F)(F)F)oc12,1.2,.
Cc1ccc(N(C)S(=O)(=O)c2cc(Br)cnc2N)cc1,-0.3,0.4
O=C(Nc1cc(Cl)ccc1O)c1nc2ncccn2n1,-0.85,.
CCCCn1c(CCCNC(C)=O)nc2ccccc21,-0.15,0.21
N#Cc1cccc(NC(=O)c2sc3nc4c(cc3c2N)C2CCN4CC2)c1,2,8.4
COc1cc(OC)c(/C=C2\C(=O)NC(=S)N(c3ccc(Cl)cc3)C2=O)cc1Br,.,3.6
Cc1cc(-c2ccc(S(=O)(=O)N3CCc4ccccc43)s2)on1,-0.05,-0.045

# (more compounds)
SMILES,AID504770,CapD inh
Cc1ccc(N(C2CCS(=O)(=O)C2)S(C)(=O)=O)cc1 (centres undefined),0.1,-0.22
O=C(NCc1csc2ccccc12)OCC1CCCCN1Cc1c(Cl)cccc1Cl (centres undefined),.,-0.57
CCN(C(=O)c1sc2nc(C)nc(N3CCCCC3)c2c1C)c1ccccc1,.,-1
N#Cc1c(Nc2ccccc2)sc(C(=O)c2ccc(Cl)c(Cl)c2)c1N,.,-0.64
O=C(c1ccc(-n2cc(-c3cnccn3)cn2)cc1)N1CCOCC1,.,3.8
COc1cc(C(=O)N2CCC(c3nc(-c4cccc(C(F)(F)F)c4)no3)CC2)cc(OC)c1OC,.,-0.47
c1csc(-c2nc(NC3=NCCCCC3)sc2-c2cccs2)c1,0.2,.
O=C(/C=C/c1cccs1)/C=C/c1cccs1,0.3,-1.1
CCOC(=O)C1NCCc2ccccc21 (centres undefined),1.1,-0.67
COc1ccc(Cc2nnc(SCC(=O)N(c3ccccc3)C(C)C)n2N)cc1OC,-0.1,.
CCOC(=O)c1cc(C)nc(Sc2ccc(NC(C)=O)cc2)n1,1.1,0.79
Cc1cc(=O)oc2c3c(ccc12)O/C(=C\c1ccccc1Cl)C3=O,.,-0.56

# Reprinted from the part before: two compounds, followed by the next part.
SMILES,AID504770,CapD inh
CCOC(=O)c1cc(C)nc(Sc2ccc(NC(C)=O)cc2)n1,1.1,0.79
Cc1cc(=O)oc2c3c(ccc12)O/C(=C\c1ccccc1Cl)C3=O,.,-0.56
COc1ccccc1/C=C1/C(=O)N(C2CCCCC2)C(=S)N1C,0.85,0.45
N=c1n(-c2ccccc2)c(=N)n(-c2ccccc2)c(=N)n1-c1ccccc1,1.9,0.7
O=c1cc(CN2CCN(Cc3ccccc3)CC2)occ1OCc1cccc(F)c1,-1.4,.
CC(C)N(Cc1ccccc1)C(=O)c1ccc(F)cc1F,0,-0.28
Cc1sc2ncn(CC(=O)NCC(=O)N3CCN(c4ccccc4F)CC3)c(=O)c2c1C,.,-0.23
CCCCN(C(=O)c1nc2nccc(C)n2n1)c1ccccc1,0.1,.
CN(C)C(CNc1ncnc2cc(Cl)ccc12)c1ccco1 (centres undefined),-0.4,.
Cc1ccc(-c2nnc(N3CCOCC3)c3ccccc23)cc1S(=O)(=O)NC(C)(C)CO,-0.6,-0.99
O=S(=O)(NC1CCCCC1Sc1nc2ccccc2o1)c1ccc(Cl)cc1 (centres undefined),-0.65,-0.73
COC(=O)Cc1cc(OC)c(OC)cc1[N+](=O)[O-],.,-1.5
N=c1c2c3c(sc2ncn1Nc1ccccc1)CCC3,-1.2,-0.68
Cc1cccc(Nc2nc3nonc3nc2N2CCC(Cc3ccccc3)CC2)c1C,.,-0.12
COC(=O)c1ccc(N2CCCC2)c(NS(=O)(=O)c2ccc(C)cc2)c1,-0.55,-0.48
Cc1cccc(OC(C)C(=O)Nc2ccc(S(N)(=O)=O)cc2)c1 (centres undefined),0.7,-0.19
O=C(O)CSc1nc2ccccc2c(=O)n1Cc1ccco1,2,.
O=C(COc1nc2ccccc2nc1N1CCOCC1)N1N=C(c2ccc(Cl)cc2)CC1c1ccco1 (centres undefined),0.1,.
CCOC(=O)COc1ccccc1/C=C(/C#N)S(=O)(=O)c1cccs1,-0.65,0.41
COc1ccc(C2CC(c3ccc(C)cc3)=NN2S(=O)(=O)c2ccccc2)cc1 (centres undefined),.,-0.48
COc1cc(C(=O)NCC2COc3ccccc3O2)cc(OC)c1C (centres undefined),0.15,.
CSc1nc2nc3c(cn2n1)C(=O)CCC3,-0.75,.
COc1ccc(NC(=O)CN(C)C(=O)Cc2c[nH]c3ccccc23)cc1,0.4,.
CN(c1nc(-c2ccc(Br)cc2)cs1)C1CCS(=O)(=O)C1 (centres undefined),0.3,.
O=C(COC(=O)c1ccc(N2C(=O)C3CC=CCC3C2=O)cc1)c1ccc(Cl)c([N+](=O)[O-])c1 (centres undefined),.,-1.2
COc1ccc(C2NCC3(C)CN2CC(C)C3O)cc1OC (centres undefined),-1,-0.05
Cn1ccnc1SCC(=O)Nc1cccc2ccccc12,-1,6.1
COc1cccc(/C=C2/SC(=S)N(CCC(=O)Nc3c(C)n(C)n(-c4ccccc4)c3=O)C2=O)c1,.,-0.17
O=C(CCCC(=O)N1CCN(c2ccccc2F)CC1)c1ccccc1,-0.35,0.26
Cn1c(=O)nc2n(-c3ccc(Cl)c(Cl)c3)c3ccccc3cc-2c1=O,0.1,0.4
O=C1C2C3c4ccccc4C(C=Nc4cccc(O)c4)(c4ccccc43)C2C(=O)N1c1ccccc1 (centres undefined),.,-0.17
CN(C)c1nc(OCC(F)(F)F)nc(N(c2ccccc2)c2ccccc2)n1,-0.05,.
Cc1ccc(S(=O)(=O)Nc2ccc(C(=O)Nc3cc(C)on3)cc2)cc1,-0.1,0.93
CC(C)(C)C(=O)Nc1ncccc1/C=C1\C(=O)Nc2ccccc21,0.85,0.15
CCN1C(=O)C(CC(=O)Nc2ccc(OC)cc2)N(CCCN2CCN(c3ccc(OC)cc3)CC2)C1=S (centres undefined),0.15,-0.34
CC1=C/C(=N/OC(=O)c2ccccc2)C=CC1=O,-1,.
CC(C)(C)NC(=O)CSc1nnnn1-c1ccc(O)cc1,0.75,-0.36
COC(=O)c1c(C)oc2ccc(OC(=O)c3c(C)oc4ccc(OC(C)=O)cc34)cc12,.,0.06
COc1ccc(-c2nc3cc(Cl)ccc3o2)cc1,0,67
O=C(COc1ccc(Cl)cc1Cl)OCC(=O)c1ccc(F)cc1,1.7,-0.04
COc1ccc(/C=N/C(=S)NN)cc1,-0.25,.
